Mtb hypoxia rep = reduces hypoxia-regulated biosensor signal in M. tuberculosis. M. tuberculosis hypoxia-regulated fluorescent reporter, fluorescence. fluorescence inhibition, % (concentration not given with the values). hit rate 0.1% among 300,000;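 active = 35 to 45% if threefold the growth effect, above 45% if 1.5-fold the growth effect; inactive = the rest, general growth blockers included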;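 also: wells of about 50 µL received 100 nL stock; 0% = vehicle wells and 100% = reference inhibitor wells; whole bacteria with a GFP reporter of the hypoxia response; strong numbers were not always called active; many hits fall short of the cut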
ugtP null kill = growth inhibition of S. aureus ugtP deletion strain | S. aureus RN4220 ugtP deletion, OD600 growth, 16 h; some inactives read as strong as hits | growth inhibition, % (concentration not given with the values) | hit rate 0.54% among 330,000 | AID 1259309;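 active = z-score under -3 and OD600 up to 0.15 on both plates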;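 also: plate controls were untreated wells for no effect and antibiotic for full effect; wells of about 80 µL received 100 nL stock; the first replicate is given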
BJeLR lethal = BJeLR cell viability loss. BJeLR (HRASV12) viability, CellTiter-Glo ATP luminescence, 48 h; reference of the scale not given here. inhibition, % (test concentration not listed). hit rate 0.17% among 300,000. AID 1554;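 active = replicate mean above 50%; inconclusive = above 50% but judged a plate artefact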;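 also: 50 nL library stock added to about 25 µL; numbers are from one replicate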
Sa RN4220 lethal = S. aureus RN4220 growth inhibition | OD600, 16 h | inhibition, % (no concentration beside the values) | hit rate 0.33% among 330,000;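 active = z-score of -3 or lower and OD600 up to 0.18 on both plates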;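 also: plate controls were untreated cells for no effect and reference antibiotic for full effect; stock transfer was 100 nL into about 80 µL; one replicate is shown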
Bead autofluor = flagged as autofluorescent in microsphere protease counterscreen; AID 624483; hit rate 3.1% among 360,000; fluorescence intensity (test concentration not listed); compound autofluorescence counterscreen, microsphere flow cytometry; stronger effect = higher value;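 active = at least 3 SD above the mean of all compounds, about 16000 in these data; inconclusive = too few beads counted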;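 also: 100 nL of 1 mM stock went into each well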
PrP UTR inh = suppresses PrP 5' UTR mRNA reporter expression; cell-based PrP 5' UTR mRNA reporter, plate reader; inhibition, % (test concentration not listed); hit rate 0.35% among 340,000; AID 488862;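 active = every replicate at 50% or more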;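 also: 0 = median of the neutral control wells; tested in H4 reporter cells; numbers are from one replicate; inactives centre near -14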
Mtb hypoxia rep growth = second read-out of Mtb hypoxia rep, no call of its own (marks repeat the call); growth inhibition, %; measured here: M. tuberculosis growth (absorbance);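 0% = vehicle and 100% = reference antibiotic; read after six days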
An asterisk follows results filed as active; u = inconclusive; x = no result given. Random draw from the library; about 4.1% have a hit in one of these screens.

SMILES	Mtb hypoxia rep	Mtb hypoxia rep growth	ugtP null kill	BJeLR lethal	Sa RN4220 lethal	Bead autofluor	PrP UTR inh
O=C(Nc1ccc2c(c1)OCO2)C1CC(c2c(F)cccc2Cl)=NO1 (stereo unspecified)	15	3	4	4	4.1	4432	-15
C=CCOc1ccc(/C=C/C(=O)OCC(=O)NC(C)c2ccc(F)cc2)cc1 (stereo unspecified)	7	2	4	-2	1.6	4662	-3
Cc1cc(C)cc(N(C(C)C(=O)N2CCCCC2)S(C)(=O)=O)c1 (stereo unspecified)	x	x	-4	-7	-19	2949	-18
O=C(Nc1cc2c3c(c1)CC(=O)N3CCC2)c1ccc(Br)cc1	-6	8	-1	2	0.8	x	-15
CS(=O)(=O)N1CCc2cc(C(=O)Nc3ccc(Cl)cc3)ccc21	x	x	x	-1	x	3806	-50
c1csc(-c2nc(NCC3CCCO3)c3ccccc3n2)c1 (stereo unspecified)	0	8	-1	-12	-0.7	5108	0
COc1ccc(CN(C)C(=O)CNC(=O)c2ccc3ccccc3c2)c(OC)c1	17	6	17	-8	-1.4	3796	-29
CCOC(=O)CN(C(=O)COC(=O)C1(c2ccccc2)CC1)c1ccc(F)cc1	-10	6	3	-3	-2.5	6676	6
CC(=O)c1sc(Nc2nc3cc4c(cc3s2)OCO4)nc1C	8	-3	1	-2	-9.5	4460	-27
CCCCN(CC)C(=O)CN1C(=O)c2ccccc2C1=O	x	x	0	-3	0.6	2819	-12
CCN1CCN(CCNC(=O)CCCn2nc(C)c3c(C)n(-c4ccc(C)cc4)nc3c2=O)CC1	-6	2	-7	-1	-1.1	5665	-1
Cc1ccnc(NS(=O)(=O)c2ccc(N3C(=O)c4ccccc4C3=O)cc2)n1	x	x	x	-8	x	9680	-8
Cc1cccc(OC(=O)c2cccnc2)c1C	-2	1	9	-5	2.1	4252	-15
OC(CN1CCC(Cc2ccccc2)CC1)c1ccccc1 (stereo unspecified)	3	10	1	10	1.4	3641	-12
CC(=O)NC(CC(=O)OCC(=O)Nc1cc(S(=O)(=O)N2CCCCC2)ccc1C)c1ccccc1 (stereo unspecified)	13	12	8	x	3.7	6475	-25
COc1ccc(OC)c(-c2csc(NC(=O)C3COc4ccccc4O3)n2)c1 (stereo unspecified)	8	16	5	6	4.3	3724	-13
CN(Cc1nc2ccccc2n1C)S(=O)(=O)c1ccc(Cl)cc1	x	x	5	5	-7.4	2757	-3
COc1ccc2[nH]c(C(=O)NCCCn3ccnc3)cc2c1	11	6	-6	1	0.7	2960	-6
CCCCNC(=O)CC1N=C2c3ccccc3N=C(SCC(=O)Nc3ccccc3C)N2C1=O (stereo unspecified)	x	x	3	-2	1.7	4171	-12
O=[N+]([O-])c1cc(-c2nc(-c3ccncc3)no2)ccc1Cl	15	0	-1	-11	0.0	1970	5
COc1cc(C=NNC(=O)c2cc(-c3c(C)nn(-c4ccccc4)c3C)n[nH]2)ccc1O	x	x	95*	x	62	x	x
CCCSc1nc2c(cnn2-c2ccccc2)c(=O)[nH]1	9	5	5	-4	1.3	5427	-15
COc1cc(/C=N/Nc2cccc(C)c2)ccc1OC(=O)c1ccco1	x	x	x	-2	x	2018	-13
CC(C)[C@H]1C(=O)Nc2ccccc2N1C(=O)N[C@@H](Cc1ccccc1)C(=O)N[C@H](C(=O)O)c1ccccc1	x	x	4	-6	3.2	6245	-8
CNCC(CC1CCCCC1)NCC(CC(C)C)NCCc1cccc(C(F)(F)F)c1 (stereo unspecified)	x	x	86	x	89*	x	x

Pulled one by one from above (2):
SMILES	Mtb hypoxia rep	Mtb hypoxia rep growth	ugtP null kill	BJeLR lethal	Sa RN4220 lethal	Bead autofluor	PrP UTR inh
Cc1cc(C)cc(N(C(C)C(=O)N2CCCCC2)S(C)(=O)=O)c1 (stereo unspecified)	x	x	-4	-7	-19	2949	-18
OC(CN1CCC(Cc2ccccc2)CC1)c1ccccc1 (stereo unspecified)	3	10	1	10	1.4	3641	-12

Next part
SMILES	Mtb hypoxia rep	Mtb hypoxia rep growth	ugtP null kill	BJeLR lethal	Sa RN4220 lethal	Bead autofluor	PrP UTR inh
COc1ccc(NS(=O)(=O)c2cccs2)cc1S(=O)(=O)N1CCCCC1	3	4	7	-2	0.1	4746	-26
O=C(NCc1cccnc1)c1ccc(Cl)c(S(=O)(=O)N2CCOCC2)c1	8	7	1	3	2.1	6361	14
Cc1cc(=O)oc2cc(OCC(=O)Nc3ccccc3C(=O)O)ccc12	-18	6	-3	1	-2.1	3629	4
CCOC(=O)O[C@]1(C(=O)OCCl)CCC2C3CCC4=CC(=O)C=C[C@]4(C)C3C(O)C[C@@]21C (stereo partly specified)	9	10	1	x	6.0	x	x
COc1cccc2c1OC1C(=O)CCC3CN(C)CCC231 (stereo unspecified)	3	-2	1	x	4.5	x	x
COC(=O)CC1c2cc(F)ccc2S(=O)(=O)N1c1ccc(N(C)C)cc1 (stereo unspecified)	14	13	6	x	8.1	x	x
COc1cc(-c2nnc3n2N=C(c2ccccc2)CS3)cc(OC)c1OC	-3	6	-11	23	4.6	4484	14
CC(=O)NC(Cc1ccccc1)Cc1ccccc1	7	-5	8	-6	5.6	3009	-12
Cc1ccc(S(=O)(=O)N2C[C@@H]3[C@H]4CC[C@H](C4)[C@@H]3[C@@H](C)[C@@H]2c2ccn(Cc3ccccc3)c2)cc1	7	6	26	x	0.8	3030	-4
Cc1nc(N2CCN(Cc3ccccc3)CC2)nc2c1C(=O)CC(C)C2 (stereo unspecified)	-7	12	4	7	2.5	10232	-7
O=C(CC(c1ccccc1)c1ccccc1)Nc1nn[nH]n1	-2	-2	2	3	0.5	4955	41
Cc1cccc(Sc2c([N+](=O)[O-])ncn2C)c1	5	-4	-2	-14	3.6	23323*	-21
Nc1cc2c(cc1Cl)N(Cc1ccccc1)C(=O)CO2	4	0	3	x	12	6720	-10
Cc1ccc(N(CCO)C(=S)Nc2ccccc2)cc1	-5	-3	1	4	3.4	4111	-3
CN(C)CCCn1c(=O)n(Cc2ccco2)c(=O)c2c3c(sc21)CCCCC3	11	14	8	0	-2.7	6100	-18
Clc1ccc2nc(-c3ccncc3)cc(-c3ccccc3)c2c1	1	-17	6	4	1.4	2070	-5
COc1cccc(N2C(=O)CN(Cc3cc(OC)c(OC)c(OC)c3)C2=S)c1	0	9	8	1	1.9	3382	-22
CC(C)C(=O)N[C@@H]1c2ccccc2CC[C@@H]1OCc1ccccc1	0	4	-1	x	0.7	3759	-11
CCc1ccc(OCC(=O)OCC(=O)NCCNC(=O)COC(=O)COc2ccc(CC)cc2)cc1	0	-4	5	-4	3.4	4504	2
CC(C)CN(C(=O)COC(=O)c1ccc2ccccc2c1)c1c(N)n(Cc2ccccc2)c(=O)[nH]c1=O	8	-1	-2	-2	4.5	u	-20
CCN(CC)CCNC(=O)c1ccccc1N	5	2	4	0	7.0	3118	-2
O=C(COC(=O)c1cccnc1Nc1cccc(C(F)(F)F)c1)NCCN1C(=O)CSC1=O	0	-1	-6	0	-0.4	3383	-15
S=C(NCCc1ccc(Cl)cc1)NC1CCCCC1	x	x	x	1	x	5860	-42
CC1(C)NC(=O)N(CNc2cc(Cl)ccc2Cl)C1=O	x	x	1	2	5.1	4197	-68
Cc1ccc(-c2csc(NC(=O)c3ccco3)n2)cc1C	-1	0	36	-13	31	4477	-89
Further records
SMILES	Mtb hypoxia rep	Mtb hypoxia rep growth	ugtP null kill	BJeLR lethal	Sa RN4220 lethal	Bead autofluor	PrP UTR inh
Fc1ccc(N2CCN(Cc3nnc(-c4ccccc4)o3)CC2)cc1	-7	17	-6	-6	-3.6	2456	2
Fc1ccc(CNC(=S)NCc2ccccc2)cc1	x	x	x	6	x	6913	1
Cc1cc(OCCn2cc(/C(N)=N/O)c3ccccc32)ccc1Cl	3	6	93*	-9	11	5803	-23
C#CCOCCOCCOCCNc1nc(N2CCN(C(=O)[C@H](CCCCN)n3cc([C@@H](N)C(C)CC)nn3)CC2)nc(N2CCN(C(=O)[C@H](Cc3cc4ccccc4[nH]3)n3cc([C@@H](N)CC(C)C)nn3)CC2)n1 (stereo partly specified)	x	x	x	2	x	3134	1
Cc1c(OC(=O)c2ccc([N+](=O)[O-])cc2)c2c(c[n+]1C)COC(C)(C)OC2	17	2	-4	-1	-8.3	2477	-89
NC(=O)C1CCN(C(=O)CCc2nc3sc4c(c3c(=O)[nH]2)CCCC4)CC1	4	2	3	8	2.0	u	-8
COC(=O)c1ccc(C23CC4(C2)C(CN(CC2CCCCC2)C4c2ccccc2)C3c2ccc(Cl)nc2)cc1 (stereo unspecified)	-11	12	-2	x	-1.4	x	x
Nc1ncnc(Nc2cccc(Cl)c2Cl)n1	5	5	2	3	3.6	2191	-23
Cc1c(C)c2ccc(OCC(=O)Nc3ccc(S(N)(=O)=O)cc3)c(C)c2oc1=O	6	-1	8	3	3.0	4274	-15
O=C(O)c1ccccc1	x	x	9	x	0.4	5529	-8
O=c1[nH]c(C2CCN(S(=O)(=O)c3ccc(C(F)(F)F)cc3)CC2)nc2c1nnn2Cc1ccc(F)cc1	x	x	x	-6	x	3191	-6
COc1ccc(CCNS(=O)(=O)c2cccc3nsnc23)cc1OC	1	0	1	-11	3.5	10965	x
O=C(Nc1nnc(-c2cccs2)o1)c1cccc(C(F)(F)F)c1	-1	3	100*	-1	100*	5593	-3
CCc1ccc(NC(=O)CSc2nnc(-c3ccco3)o2)cc1	5	7	5	7	0.1	5422	-9
Cc1cc(Cl)c(S(=O)(=O)NC(C(=O)O)C(C)C)cc1OCC(=O)NC1CCCCC1 (stereo unspecified)	14	5	4	-1	1.8	20262*	-12
O=C(Nc1ccccc1C(=O)NC1CC1)c1ccc([N+](=O)[O-])o1	x	x	34	x	17	u	-8
COc1ccc(OC)c(NC(=O)CCc2c[nH]c3ccccc23)c1	-1	9	2	1	1.3	3941	-3
COc1ccccc1NC(=O)CC1SC(=N)N(c2ccccc2)C1=O (stereo unspecified)	0	8	5	16	3.0	3532	-9
CC(=O)Nc1cccn(Cc2c(Cl)cccc2Cl)c1=O	16	6	1	3	3.5	2775	-23
O=C(Nc1ccccc1)c1cc(-c2ccccc2Cl)no1	x	x	-15	-2	-0.1	4785	-45
O=C(O)/C=C/c1cn(-c2ccccc2)nc1-c1cc2ccccc2oc1=O	1	2	4	3	5.4	5386	-25
CCc1sc(C(=O)NCc2ccco2)cc1Br	x	x	-4	3	7.5	3421	-11
O=C(NC1CC1)C1=C[C@@H](C2CCCCC2)C[C@@H](OCc2ccc(CO)cc2)O1	x	x	x	-2	x	3742	-3
Cc1cc([N+](=O)[O-])nn1CC(=O)NNC(=S)Nc1ccc(Cl)cc1	2	7	-4	15	0.4	23664*	-30
Cc1ccc2nc3sc(C(=O)Nc4c(C)[nH]c(=O)[nH]c4=O)c(N)c3cc2c1	3	-4	-5	-4	4.2	8886	-19

Compound profiles (already shown). Values in the order: Mtb hypoxia rep | Mtb hypoxia rep growth | ugtP null kill | BJeLR lethal | Sa RN4220 lethal | Bead autofluor | PrP UTR inh
COc1ccc(CCNS(=O)(=O)c2cccc3nsnc23)cc1OC as listed: 1 | 0 | 1 | -11 | 3.5 | 10965 | x
Cc1c(OC(=O)c2ccc([N+](=O)[O-])cc2)c2c(c[n+]1C)COC(C)(C)OC2 as listed: 17 | 2 | -4 | -1 | -8.3 | 2477 | -89

Additional structures follow.
SMILES	Mtb hypoxia rep	Mtb hypoxia rep growth	ugtP null kill	BJeLR lethal	Sa RN4220 lethal	Bead autofluor	PrP UTR inh
CC(C)C[C@@H]1CN=C(N)N1C[C@@H]1CCCN1C[C@@H](C(C)C)N1C[C@@H](Cc2ccccc2)N(CCCC2CCCC2)C1=N	x	x	101*	x	101*	3015	4
CCN1CCC2(CCN(C(=O)c3cc(COc4cc(C)ccc4C)on3)C2)C1 (stereo unspecified)	4	10	13	-11	1.5	7918	0
Cc1c(OC(C)C(=O)N2C[C@H]3C[C@@H](C2)c2cccc(=O)n2C3)ccc2c3c(c(=O)oc12)CCCC3 (stereo partly specified)	x	x	1	1	1.7	5698	-13
CCOC(=O)c1ccccc1NC(=O)c1c(O)c2ccccc2n(CC)c1=O	x	x	-9	x	-0.9	5071	-24
COC(=O)c1c(C)[nH]c(C(=O)OCC(=O)NCC(C)C)c1C	x	x	4	-1	3.9	2858	-25
CN(C)c1nc(-c2ccccc2)nc(-c2ccc(Cl)cc2)c1C#N	17	-21	4	1	-17	2820	-7
O=C(CSc1nnc2c(n1)[nH]c1ccccc12)Nc1cccc(S(=O)(=O)N2CCOCC2)c1	13	-4	3	-3	4.3	3761	-6
CCOc1ccccc1N1CCN(C(=O)c2ccc(-c3ccc(OC(C)=O)cc3)cc2)CC1	12	6	-2	1	2.2	4005	-22

Assay outcomes: PubChem, several laboratories
